FPR ligand: human FPR ligands by binding competition, primary screen, cell-based, FPRL1 counter-screen, flow cytometry; fMet-Leu-Phe receptor (Homo sapiens), P21462; AID 440, 2006; 0.74% of 24,000 active; FPR-expressing cells, fluorescent ligand binding; inhibition, %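 (tested at 6.7 µM)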;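 further: 0% = buffer wells and 100% = receptor blocker peptide wells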
Target sequence (P21462 whole entry, looked up): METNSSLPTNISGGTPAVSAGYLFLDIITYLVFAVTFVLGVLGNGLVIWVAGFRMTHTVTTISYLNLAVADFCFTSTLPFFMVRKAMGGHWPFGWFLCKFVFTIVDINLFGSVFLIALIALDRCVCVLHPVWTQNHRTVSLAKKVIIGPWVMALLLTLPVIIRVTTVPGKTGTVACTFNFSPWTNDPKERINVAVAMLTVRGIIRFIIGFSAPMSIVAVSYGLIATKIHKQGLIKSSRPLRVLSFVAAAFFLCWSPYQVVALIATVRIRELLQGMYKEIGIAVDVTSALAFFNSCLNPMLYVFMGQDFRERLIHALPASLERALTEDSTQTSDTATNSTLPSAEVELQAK
VCAM-1 inhibition: inhibitors of TNFa-induced VCAM-1 surface display, cell-based, plate reader, pooled HUVEC, TNFa stimulus (AID 454). HUVEC TNFa-induced VCAM-1 surface immunofluorescence, plate reader; numbers were filed only for top-ranked candidate wells. inhibition, % at 5 µM. 0.2% of 10,000 active;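 active means compound among top-ranked inhibitors of TNF-induced VCAM-1 adhesion protein staining, with the hit upheld by image or statistical review; inactive means the rest, including hits rejected on review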;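 further: 0% = TNFa with vehicle and 100% = cells without TNFa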
FPRL1 binder: human FPRL1 ligands by binding competition, primary screen, cell-based, FPR counter-screen, flow cytometry; N-formyl peptide receptor 2 (Homo sapiens), P25090; FPRL1-expressing cells, fluorescent ligand binding inhibition; inhibition, %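 (tested at 6.7 µM)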; 0.3% of 24,000 active;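 further: 0% = buffer alone and 100% = receptor blocker peptide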
Target sequence (P25090 whole entry, looked up): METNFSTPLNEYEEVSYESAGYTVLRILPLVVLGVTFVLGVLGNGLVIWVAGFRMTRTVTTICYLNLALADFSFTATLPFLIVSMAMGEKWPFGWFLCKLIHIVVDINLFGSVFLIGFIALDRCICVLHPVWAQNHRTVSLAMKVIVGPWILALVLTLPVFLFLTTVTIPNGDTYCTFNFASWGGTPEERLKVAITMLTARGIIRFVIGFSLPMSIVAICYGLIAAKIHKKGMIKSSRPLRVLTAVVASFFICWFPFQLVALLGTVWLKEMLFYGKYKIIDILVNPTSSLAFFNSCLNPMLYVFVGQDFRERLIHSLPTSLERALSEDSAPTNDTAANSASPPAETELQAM
VCAM-1 up imaging: enhancers of VCAM-1 display on endothelial cells, imaging, high-content imaging, pooled HUVEC, TNFa stimulus (AID 457). Pooled HUVEC, TNFa-induced VCAM-1 immunofluorescence imaging; hits of this screen are not shown here. calls only. 0.2% of 10,000 active;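 active means a top-ranked rise in VCAM-1 staining upheld on image or statistical review; inactive means the rest, including candidates rejected on review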;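 further: compounds tested at 5 µM in the well; cells exposed to compound for 24 hours before fixing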
VCAM-1 imaging: inhibitors of TNFa-induced VCAM-1 surface display, imaging, high-content imaging, pooled HUVEC, TNFa stimulus (AID 456); HUVEC TNFa-induced VCAM-1 surface expression, immunofluorescence imaging; numbers were filed only for top-ranked candidate wells; inhibition, % at 5 µM; hits with a dose series show IC50 in µM; 0.2% of 10,000 active;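 active means top tenth filtered wells with inhibition above zero that passed visual or statistical confirmation; inactive means the rest, including hits rejected on review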;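 further: 0% = stimulated vehicle wells and 100% = unstimulated cells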
An asterisk follows results filed as active.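 How the source made its calls, unless noted: active means mean above 30%; inconclusive means self-fluorescent; inactive means the rest.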

Start of the listing, in advance (4 entries):
`COCCNC(=O)CS(=O)(=O)Cc1nc(-c2ccc(C)cc2)oc1C` gave FPR ligand -5.1 and FPRL1 binder -1.8.
Cc1nnc(NC(=O)CSc2cn(CCNC(=O)c3ccccc3)c3ccccc23)s1 was read as FPR ligand -7.3, VCAM-1 inhibition inactive, FPRL1 binder -1.3, VCAM-1 up imaging inactive and VCAM-1 imaging inactive.
`CCC1c2ccc(C)n2CCN1C(=O)Nc1cc(Cl)ccc1OC` (stereo unspecified) gave FPR ligand 0.6 and FPRL1 binder -0.8.
For Cc1nnc(SCC(=O)N(C(C)C)C(C)C)nc1C the results were FPR ligand -6.0, VCAM-1 inhibition inactive, FPRL1 binder -5.7, VCAM-1 up imaging inactive and VCAM-1 imaging inactive.

Main list (from the top)
`COCCNC(=O)CS(=O)(=O)Cc1nc(-c2ccc(C)cc2)oc1C` gave FPR ligand -5.1 and FPRL1 binder -1.8.
Cc1nnc(NC(=O)CSc2cn(CCNC(=O)c3ccccc3)c3ccccc23)s1 was read as FPR ligand -7.3, VCAM-1 inhibition inactive, FPRL1 binder -1.3, VCAM-1 up imaging inactive and VCAM-1 imaging inactive.
`CCC1c2ccc(C)n2CCN1C(=O)Nc1cc(Cl)ccc1OC` (stereo unspecified) gave FPR ligand 0.6 and FPRL1 binder -0.8.
For Cc1nnc(SCC(=O)N(C(C)C)C(C)C)nc1C the results were FPR ligand -6.0, VCAM-1 inhibition inactive, FPRL1 binder -5.7, VCAM-1 up imaging inactive and VCAM-1 imaging inactive.
`COc1ccc(OC)c(S(=O)(=O)Nc2ccccc2C(=O)O)c1` gave FPR ligand 18.1, VCAM-1 inhibition inactive, FPRL1 binder 1.1, VCAM-1 up imaging inactive and VCAM-1 imaging inactive.
`COc1cc2c(C(=O)NCCCN3CCN(c4cccc(Cl)c4)CC3)cn(C)c(=O)c2cc1OC` gave FPR ligand 2.3 and FPRL1 binder 24.3.
`CCOc1ccc2nc(N3CCC(C(=O)Nc4nnc(CC)s4)CC3)sc2c1` gave FPR ligand -3.4 and FPRL1 binder -10.6.
Screening O=C(CCCn1c(SCC(=O)c2ccc(Cl)cc2)nc2ccccc2c1=O)NCc1ccco1 returned FPR ligand 5.2 and FPRL1 binder 5.8.
For C=C(C)Cn1c(C(C)NC(=O)CCC)nc2ccccc21 (stereo unspecified) the results were FPR ligand 4.3 and FPRL1 binder 10.4.
Cc1nc2ncnn2c(C)c1CCC(=O)N1CCN(c2ccccn2)CC1 was read as FPR ligand -2.5 and FPRL1 binder 1.3.
Screening COc1cc2c(C(=O)NC3CCCCCC3)cn(C)c(=O)c2cc1OC returned FPR ligand -3.1 and FPRL1 binder -2.1.
`CC(=O)Nc1ccc(S(=O)(=O)NCc2cn3c(C)csc3n2)cc1` gave FPR ligand -3.9, VCAM-1 inhibition inactive, FPRL1 binder -0.7, VCAM-1 up imaging inactive and VCAM-1 imaging inactive.
CCOC(=O)N1CCN(C(=O)CSc2nnc(Cc3cccn3C)n2CCc2ccccc2)CC1 was read as FPR ligand -1.1 and FPRL1 binder 0.5.
Screening Clc1cccc(Cl)c1COc1ccncc1 returned FPR ligand -3.7, VCAM-1 inhibition inactive, FPRL1 binder 6.9, VCAM-1 up imaging inactive and VCAM-1 imaging inactive.
`COc1ccccc1Cn1nnc2c(=O)[nH]c(C3CCN(C(=O)c4ccc(F)cc4)CC3)nc21` gave FPR ligand -12.3 and FPRL1 binder -0.1.
CCC(C)(C)n1nnnc1C(c1ccccc1OC)N1CCSCC1 (stereo unspecified) was read as FPR ligand -1.3, VCAM-1 inhibition inactive, FPRL1 binder 1.1, VCAM-1 up imaging inactive and VCAM-1 imaging inactive.
Screening COc1ccc(-c2cc3nc(C)c(CCC(=O)NCc4ccco4)c(C)n3n2)c(OC)c1 returned FPR ligand 0.1, VCAM-1 inhibition inactive, FPRL1 binder -3.5, VCAM-1 up imaging inactive and VCAM-1 imaging inactive.
Screening CSc1nnc(Cn2c(=O)sc3ccccc32)n1C returned FPR ligand 2.8 and FPRL1 binder 2.5.
O=C(CN1C(=O)c2ccccc2C1=O)NCC1COc2ccccc2O1 (stereo unspecified) was read as FPR ligand -4.4, VCAM-1 inhibition inactive, FPRL1 binder 0.2, VCAM-1 up imaging inactive and VCAM-1 imaging inactive.
Cc1ccc(NC(=O)CCNS(=O)(=O)c2ccc3c(c2)oc(=O)n3C)c(C)c1 was read as FPR ligand 9.3 and FPRL1 binder 2.3.
Screening CCOCCCNC(=O)c1c[nH]c2ccc(S(=O)(=O)Nc3cccc(OC)c3)cc2c1=O returned FPR ligand -1.5, VCAM-1 inhibition inactive, FPRL1 binder -2.1, VCAM-1 up imaging inactive and VCAM-1 imaging inactive.
COc1ccc(N2CSC3=C(C#N)C(c4cc(OC)ccc4OC)CC(=O)N3C2)c(OC)c1 (stereo unspecified) was read as FPR ligand -3.3 and FPRL1 binder 0.4.
C/C=C/CSc1nc2c(c(=O)[nH]c(=O)n2C)n1Cc1ccc(C)cc1 was read as FPR ligand -1.4, VCAM-1 inhibition inactive, FPRL1 binder -6.2, VCAM-1 up imaging inactive and VCAM-1 imaging inactive.
CC(C)CNC(=O)c1ccccc1NC(=O)CN(c1ccc2c(c1)OCCO2)S(C)(=O)=O was read as FPR ligand -0.1, VCAM-1 inhibition inactive, FPRL1 binder 11.6, VCAM-1 up imaging inactive and VCAM-1 imaging inactive.
For Cc1ccc(-n2ncc3c(=O)n(CC(=O)NC4CCCC4)cnc32)cc1C the results were FPR ligand 4.3 and FPRL1 binder -2.2.
COc1ccccc1NC(=O)CCc1nc(-c2cccs2)no1 was read as FPR ligand -6.8 and FPRL1 binder -7.8.
CC(C)COc1ccc(-c2nnn(CC(=O)N3CCCC3)n2)cc1 was read as FPR ligand -5.4, VCAM-1 inhibition inactive, FPRL1 binder 3.1, VCAM-1 up imaging inactive and VCAM-1 imaging inactive.
`O=C(NCN1CCCCC1)c1cccnc1` gave FPR ligand -4.4, VCAM-1 inhibition inactive, FPRL1 binder -4.2, VCAM-1 up imaging inactive and VCAM-1 imaging inactive.
For CCCCC(=O)Nc1cccc(-c2cn3ccsc3n2)c1 the results were FPR ligand -4.3 and FPRL1 binder -7.1.
Cn1c(=O)n(C)c2cc(/C=N/n3cnnc3)ccc21 was read as FPR ligand 2.0 and FPRL1 binder 4.6.
For Cc1cccc(N2CCN(C(=O)CS(=O)(=O)Cc3nc(-c4ccccc4F)oc3C)CC2C)c1 (stereo unspecified) the results were FPR ligand 3.9 and FPRL1 binder -6.8.
`CCCC(=O)c1ccc(N2CCN(C(=O)c3ccc(Br)cc3)CC2)c(F)c1` gave FPR ligand -7.5 and FPRL1 binder -1.6.
For CC1CC(C)CN(CCCNC(=O)Cn2ncc3c(=O)oc4ccccc4c32)C1 (stereo unspecified) the results were FPR ligand 0.4 and FPRL1 binder 4.2.
COc1ccc(NC(=O)CSc2nc3ccccc3c(=O)n2CCNC(C)=O)c(OC)c1 was read as FPR ligand 0.3 and FPRL1 binder -1.9.
For COc1ccc(OCC(=O)N2CCN(C(=O)COc3ccc(Br)cc3)CC2)cc1 the results were FPR ligand -5.5, VCAM-1 inhibition inactive, FPRL1 binder -1.5, VCAM-1 up imaging inactive and VCAM-1 imaging inactive.
Screening COc1cccc(-c2csc3nnc(SCC(=O)c4ccc(NC(C)=O)cc4)n23)c1 returned FPR ligand 0.4, VCAM-1 inhibition inactive, FPRL1 binder 3.3, VCAM-1 up imaging inactive and VCAM-1 imaging inactive.
`C=CCc1cc(OC)ccc1OCC(O)CN1CCN(c2ccc(OC)cc2)CC1` (stereo unspecified) gave FPR ligand 6.7, VCAM-1 inhibition inactive, FPRL1 binder -1.1, VCAM-1 up imaging inactive and VCAM-1 imaging inactive.
`Cn1c(=O)cc(SCC(=O)Nc2ccccn2)c2ccccc21` gave FPR ligand -7.5 and FPRL1 binder 3.3.
Screening CCc1nnc(NC(=O)c2ccc(S(=O)(=O)N(CC)Cc3ccccc3)cc2)o1 returned FPR ligand -6.2 and FPRL1 binder 0.3.
For Cc1cc(C)cc(OCC(=O)Nc2cccc(-c3nc4ncccc4o3)c2)c1 the results were FPR ligand -3.4 and FPRL1 binder -9.1.
Screening CCn1cc(C(=O)NCCCOC)c(=O)c2cc(S(=O)(=O)N(C)C)ccc21 returned FPR ligand -6.8, VCAM-1 inhibition inactive, FPRL1 binder 3.0, VCAM-1 up imaging inactive and VCAM-1 imaging inactive.
Screening O=C(NCc1cccnc1)C1CCCN(S(=O)(=O)c2ccc(Cl)cc2)C1 (stereo unspecified) returned FPR ligand 4.4, VCAM-1 inhibition inactive, FPRL1 binder 5.7, VCAM-1 up imaging inactive and VCAM-1 imaging inactive.
`CCOC(=O)N1CCN(C(=O)C2CCC(CNS(=O)(=O)c3ccc(Cl)cc3)CC2)CC1` (stereo unspecified) gave FPR ligand -1.8 and FPRL1 binder -1.8.
For CCCN1C(=O)c2cc(C(=O)O)ccc2C1O (stereo unspecified) the results were FPR ligand -6.3, VCAM-1 inhibition inactive, FPRL1 binder -5.1, VCAM-1 up imaging inactive and VCAM-1 imaging inactive.
`COC(=O)c1ccc(NC(=O)Cn2nnc3ccccc32)cc1` gave FPR ligand 5.5, VCAM-1 inhibition inactive, FPRL1 binder 15.5, VCAM-1 up imaging inactive and VCAM-1 imaging inactive.
`CCOc1ccccc1CN(Cc1ccco1)S(=O)(=O)c1ccc(-n2cnnn2)c(OC)c1` gave FPR ligand -1.0, VCAM-1 inhibition inactive, FPRL1 binder -6.6, VCAM-1 up imaging inactive and VCAM-1 imaging inactive.
`C=C(c1ccc(O)cc1)c1ccc(O)cc1` gave FPR ligand 0.3, VCAM-1 inhibition inactive, FPRL1 binder -7.3, VCAM-1 up imaging inactive and VCAM-1 imaging inactive.
CN1C(=O)c2ccccc2C(C(=O)NCCCN2CCCC2=O)C1c1c[nH]c2ccccc12 (stereo unspecified) was read as FPR ligand -7.3 and FPRL1 binder -2.3.
Brc1ccc(-c2cn3cccnc3n2)cc1 was read as FPR ligand -0.4, VCAM-1 inhibition inactive, FPRL1 binder -3.8, VCAM-1 up imaging inactive and VCAM-1 imaging inactive.
Screening Cc1ccccc1NC(=O)CSC(N)=O returned FPR ligand -9.8 and FPRL1 binder 3.1.
`Cc1ccc(C(=O)N(Cc2nc(-c3ccc(C)cc3)no2)C(C)C)cc1` gave FPR ligand 4.8 and FPRL1 binder 2.9.
Screening CCOCCCNC(=O)C1CCC(CNS(=O)(=O)c2ccc(F)cc2)CC1 (stereo unspecified) returned FPR ligand -1.8 and FPRL1 binder -6.1.
Screening COCCn1cc(C(=O)N2CCC(C)CC2)c2c3ccccc3n(C)c2c1=O returned FPR ligand 4.0 and FPRL1 binder 1.0.
CC(=O)OC1CC(C)(C)N(OC(=O)c2ccccc2)C(C)(C)C1 was read as FPR ligand 12.9 and FPRL1 binder 9.9.
For Cc1cc(C)cc(-n2ccnc2SCC(=O)Nc2nccs2)c1 the results were FPR ligand 2.1 and FPRL1 binder 3.3.
CCOC(=O)c1[nH]c(C)c(C(=O)Nc2ccc(C)cc2C)c1C was read as FPR ligand -3.2, VCAM-1 inhibition inactive, FPRL1 binder 0.6, VCAM-1 up imaging inactive and VCAM-1 imaging inactive.
Screening CCOc1cc(C2CC(=O)N3CN(C4CCCCC4)CSC3=C2C#N)ccc1O (stereo unspecified) returned FPR ligand 7.9, VCAM-1 inhibition inactive, FPRL1 binder 1.4, VCAM-1 up imaging inactive and VCAM-1 imaging inactive.
`COc1ccc(CNC(=O)CCCNS(=O)(=O)c2cccc3nonc23)cc1` gave FPR ligand 8.5 and FPRL1 binder 4.9.
`Cc1ccc(-c2cc(C(=O)NCCN3CCOCC3)no2)cc1` gave FPR ligand -5.6, VCAM-1 inhibition inactive, FPRL1 binder 1.6, VCAM-1 up imaging inactive and VCAM-1 imaging inactive.
O=c1cc(N2CCc3ccccc3C2)[nH]c(=O)n1-c1ccc(Cl)cc1 was read as FPR ligand -5.1 and FPRL1 binder 6.8.
`CCOC(=O)c1cc(C)n(S(=O)(=O)c2ccc(C)cc2)c1C` gave FPR ligand -5.8 and FPRL1 binder -17.4.
O=C(CCCn1c(=S)[nH]c2ccc(Br)cc2c1=O)N1CCN(c2ccccn2)CC1 was read as FPR ligand -3.3 and FPRL1 binder -5.3.
`COC(=O)c1nnn(-c2nc(N3CCCCC3)nc(N3CCCCC3)n2)c1C` gave FPR ligand -4.3 and FPRL1 binder 4.9.
For Cc1ccc(S(=O)(=O)C2(C(=O)Nc3ccc4c(c3)OCO4)CC2)cc1 the results were FPR ligand 6.1 and FPRL1 binder 6.1.
`COc1ccc(OC)c(NC(=O)C2C3CCC(O3)C2C(=O)O)c1` (stereo unspecified) gave FPR ligand -7.7 and FPRL1 binder 3.4.
Screening c1ccc(CN2CCN(c3nc4ccccc4n4cnnc34)CC2)cc1 returned FPR ligand -0.5 and FPRL1 binder -7.4.

An excerpt (hit frequency here may not be typical).
